Source: PubChem
PKD1 inh: blocks activity of human protein kinase D1 | inhibition, %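 (about 10 µM by stock and volumes)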 | AID 797 | 200,000 tested, 0.056% active | PKD1 kinase fluorescence polarization assay | Q15139;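 active = inhibition of 50% or more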;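 note: controls were vehicle for no effect and a reference inhibitor for full effect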
RGS16-Gao: RGS16-Galphao interaction regulator (human); O15492+P09471; bead-based flow cytometry RGS16-Galphao binding, fluorescence; actives lie on both sides; binding response (% of control), % at 10 µM; 220,000 tested, 0.38% active; AID 1441;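 active = below 25% or above 175%, edge rows of some plates excepted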;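 note: Galphao activated by GDP with aluminum fluoride before binding; 100% = wells without compound and 0% = beads without RGS; some results beyond the cut were filed as inactive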
Target sequence (O15492 whole entry, looked up): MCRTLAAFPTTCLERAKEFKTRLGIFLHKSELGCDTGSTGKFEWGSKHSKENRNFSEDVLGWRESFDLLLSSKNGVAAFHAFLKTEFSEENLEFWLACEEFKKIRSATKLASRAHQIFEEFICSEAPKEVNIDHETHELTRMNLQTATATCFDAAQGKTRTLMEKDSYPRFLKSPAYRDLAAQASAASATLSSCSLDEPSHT
Target sequence (P09471 whole entry, looked up): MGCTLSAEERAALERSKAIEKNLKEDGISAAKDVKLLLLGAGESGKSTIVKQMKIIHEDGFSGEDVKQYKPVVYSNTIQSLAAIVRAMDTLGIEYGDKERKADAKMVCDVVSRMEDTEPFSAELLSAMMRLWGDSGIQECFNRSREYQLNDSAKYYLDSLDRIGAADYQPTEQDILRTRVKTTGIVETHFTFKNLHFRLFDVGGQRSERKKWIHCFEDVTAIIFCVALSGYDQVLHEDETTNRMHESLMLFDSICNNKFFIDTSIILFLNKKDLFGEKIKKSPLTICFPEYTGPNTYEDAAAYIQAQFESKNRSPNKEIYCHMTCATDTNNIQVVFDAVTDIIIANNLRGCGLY
INS promoter inh: TRM-6 insulin promoter activity inhibition; TRM-6 cells (human fetal islet line), insulin promoter-eGFP reporter, imaging; reporter expression induced with tamoxifen; 130,000 tested, 0.9% active; inhibition, % at 2 µM;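 active = inhibition above the mean plus 3 SD, with well images judged a real hit on visual review, cut at about 60% in these data, passing the limit was not always enough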
GALR2 ag: GALR2 (human) receptor agonism. activation, %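 (tested at 5 µM)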. O43603. 140,000 tested, 0.48% active. AID 803. GALR2-expressing cells, agonist activation read-out;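 active = above mean plus 3 SD of all compounds, about 5% in these data, not always enough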;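 note: 0% = vehicle buffer wells and 100% = reference agonist at full effect; tested in CHO reporter cells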
Target sequence (O43603 whole entry, looked up): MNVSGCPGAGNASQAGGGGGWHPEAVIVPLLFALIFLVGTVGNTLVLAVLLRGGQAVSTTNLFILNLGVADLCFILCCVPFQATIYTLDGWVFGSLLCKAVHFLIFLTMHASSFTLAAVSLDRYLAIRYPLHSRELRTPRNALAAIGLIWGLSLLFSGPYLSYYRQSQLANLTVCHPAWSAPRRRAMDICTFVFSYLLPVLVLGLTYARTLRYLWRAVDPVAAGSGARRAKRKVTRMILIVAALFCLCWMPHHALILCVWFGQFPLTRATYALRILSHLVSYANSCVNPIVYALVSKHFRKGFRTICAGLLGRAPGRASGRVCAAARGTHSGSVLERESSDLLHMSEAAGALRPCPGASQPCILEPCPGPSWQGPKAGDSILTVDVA
HSV augment: HSV replication enhancement; HSV replication augmentation in cells, fold increase; maximum fold increase; 220,000 tested, 0.005% active;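 active = peak rise of 1.5-fold or more in the series; tested in PC3 cells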;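 note: first round at 10 µM; read as green reporter fluorescence; hits show the peak of a series up to 25 µM; 1 = signal of infected wells without compound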
INS promoter inh cell count: second read-out of INS promoter inh, no call of its own (marks repeat the call); normalized cell count, %; measured here: cell count, toxicity; reference of the scale not given here;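 cells exposed to compound for 48 h; stained nuclei by imaging scaled within each plate; lower means fewer cells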
HSV augment primary fold: further read-out of HSV augment, marked with its call; fold increase; compound at 10 µM; measured here: primary screen fold increase 10 uM; tested in PC3 cells;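 GFP signal in the first replicate; 1 = infected wells without compound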
* hit, by the source's call; i = inactive; x = not tested or not shown.

SMILES	PKD1 inh	RGS16-Gao	INS promoter inh	INS promoter inh cell count	GALR2 ag	HSV augment	HSV augment primary fold
O=C(COC(=O)c1ccccn1)Nc1ccccc1Cl	-6	100	-17	96	-2.5	i	1
CCCC(=O)Nc1ccccc1-c1nnc(SCC)[nH]c1=O	x	99	x	x	x	i	1.1
Cc1sc2ncn(CC(=O)NCCCC(=O)N3CCN(c4ccccc4)CC3)c(=O)c2c1C	3	105	24	29	-1.8	i	1
CCC(C)Sc1nc2c(cnn2-c2ccccc2)c(=O)[nH]1 (centres undefined)	-7	105	x	x	0.6	i	0.87
Cc1cc2cc(C(c3nnnn3C(C)(C)C)N(Cc3ccco3)CC3CCCO3)c(=O)[nH]c2cc1C (centres undefined)	15	96	20	119	-1.8	i	0.9
CCn1c(C)cc(/C=C2/NC(=O)N(CC(=O)Nc3cccc(C)c3)C2=O)c1C	12	101	-13	98	8.0*	i	1.1
O=C(NCCCN1CCCC1=O)c1ccc2c(c1)NC(=O)c1ccccc1S2	-8	98	x	x	-2.8	i	0.88
COCCNC(=O)C1CCCN(c2ncccn2)C1 (centres undefined)	3	109	-90	88	-1.8	i	1.2
CCCCCNC(=O)C(C)NS(=O)(=O)c1ccc(OC)cc1 (centres undefined)	-3	103	-23	122	-2.8	i	1.1
COc1ccc(OC(=O)c2cccnc2)cc1	2	102	x	x	-2.2	i	0.97
COC(C)(C)[C@]12CC(O)(c3ccccc3)ON1[C@H]1CCCCC1N2O (some centres undefined)	3	94	45	85	-0.9	i	0.91
Cc1c(C(=O)OCC(=O)NCCN2C(=O)CSC2=O)oc2c1ccc1ccccc12	-9	67	-3	124	-0.2	i	0.86
CC(C)=CC(=O)Nc1nnc(C)s1	4	76	24	118	-1.5	i	0.87
CCCC[C@@H]1CNC(=S)N1CCC12CC3CC(CC(C3)C1)C2	1	91	x	x	x	i	1.1
Cc1ccc(C(O)P(=O)(OCc2ccccc2)c2ccc(N(C)C)cc2)cc1 (centres undefined)	x	100	x	x	x	i	0.98
CCOC(=O)N1CCN(C(=O)Nc2ccc(NC(=O)N3CCN(C(=O)OCC)CC3)cc2)CC1	1	109	5	128	x	i	0.79
COc1ccccc1CNC(=O)CN1C(=O)C(C)N(c2ccc(C)cc2)C1=O (centres undefined)	-1	107	29	125	-1.6	i	1
Cc1ccc(S(=O)(=O)N(C)C)cc1NC(=O)c1sccc1Cl	x	99	x	x	x	i	0.96
Cc1cc(=O)n2c(ccc3ccccc32)c1C#N	-12	101	x	x	-0.5	i	0.94
Clc1ccc(N2N=C(c3cccs3)CC2c2ccco2)cc1 (centres undefined)	7	97	x	x	70*	i	1
CCNc1nc(C)c(CN(C(C)=O)c2ccccc2)nc1C#N	-16	65	0	110	0.6	i	0.98
CCCCN(CC)S(=O)(=O)c1ccc(C(=O)Nc2nnc(-c3cccs3)o2)cc1	-1	104	x	x	-2.5	i	0.74
O=C(OCc1ccccc1)c1cn(-c2ccccc2)nc1-c1ccncc1	-13	105	-12	73	-1.4	i	0.72
CC(C)(C)C(=O)NC(=S)NNC(=O)c1sc2ccccc2c1Cl	-4	97	32	108	101*	i	0.68
CN(C)S(=O)(=O)N1CCCN(S(=O)(=O)N(C)C)CC1	2	101	7	122	1.3	i	0.9
Cc1ccc(NC(=O)C2CCCN(S(=O)(=O)c3cccs3)C2)cc1 (centres undefined)	-10	99	-70	105	-1.0	i	0.86
CC(=O)C1=C(O)C(=O)N(c2ccc(C)cc2)C1c1ccccn1 (centres undefined)	-1	x	-267	59	-1.3	i	1.1
Cc1nn(C)c(=S)n1-c1ccc(Cl)cc1	5	98	41	71	x	i	1.1
CCOC(=O)c1c(CN2CCN(Cc3ccccc3)CC2)n(C)c2cc(Br)c(OC)cc12	5	98	8	105	-0.4	i	0.96
CCc1cc2c(N3CCN(c4ccccc4)CC3)ncnc2s1	-7	94	-58	99	-3.1	i	0.9
Fc1ccccc1NC(=S)NCc1ccc2c(c1)OCO2	-7	103	38	100	-0.3	x	x
Cc1cccc(Oc2ncnc(N)c2[N+](=O)[O-])c1	-4	105	x	x	-1.0	x	x
Cc1cc2c(OCC(O)CNC3CCCCC3)cccc2[nH]1 (centres undefined)	-6	106	6	71	x	i	0.91
O=C(NC(=S)NNC(=O)c1cccs1)c1ccco1	-4	58	8	41	-1.1	x	x
O=C(Cn1cnc2ccccc2c1=O)NCc1ccc2c(c1)OCO2	-2	114	3	46	-1.4	i	0.94
COc1ccc(-c2nsc3c(N4CCCC4)ncnc23)cc1	14	98	57	51	-2.2	i	1.1
CCc1c(C(C)S(=O)(=O)c2ccc(C)cc2)[nH]c(=O)n1-c1ccc(C)cc1 (centres undefined)	-5	98	32	61	-2.3	i	0.91
CCN(CC)C(=O)Oc1cc(COC)nc(-c2ccccc2)n1	x	100	x	x	x	i	1
O=C(COc1ccc(Cl)cc1Cl)Nc1cccnc1	-5	102	-11	87	x	i	1.2
Cc1nnc2n(C3CCCCC3)c(=O)c3c4c(sc3n12)COC(C)(C)C4	0	102	-8	64	0.9	i	0.77
COCCNC(=O)c1ccc(C2SCC(=O)N2Cc2ccco2)cc1 (centres undefined)	0	103	x	x	x	i	0.98
CC(C)Cn1c(=O)n(C)c(=O)c2[nH]cnc21	x	95	x	x	x	i	0.85
CCCC(=O)N=C1SC2CS(=O)(=O)CC2N1c1ccc(CC)cc1 (centres undefined)	0	110	x	x	-1.2	x	x
N#CCCn1cc(C=C(C#N)C#N)c(-c2ccc(Cl)cc2)n1	0	104	x	x	x	i	1.1
O=C1NC(=Nc2cccc(O)c2)S/C1=C\c1cccnc1	x	102	x	x	x	i	1.2
CN(Cc1nc(CC2CC2)no1)CC12CC3CC(CC(C3)C1)C2	1	101	x	x	x	i	0.97
CC(CCc1ccco1)NC(=O)c1cccc2c1C(=O)N(C1CCCCC1)C2 (centres undefined)	-2	97	33	147	x	i	0.89
COC(=O)c1ccc(CSc2nnc(NCc3ccccc3)s2)o1	6	95	50	133	-1.0	i	0.96
Cc1ccc(SCc2c(-c3ccccc3)nn(C)c2Cl)cc1	3	121	-32	198	-3.3	i	1.1
COc1ccccc1-c1nnc(SCC(=O)NCc2cccs2)n1N	1	107	x	x	x	i	0.95

Grouped by structure, the compounds so far containing a cyano group (3)
SMILES	PKD1 inh	RGS16-Gao	INS promoter inh	INS promoter inh cell count	GALR2 ag	HSV augment	HSV augment primary fold
Cc1cc(=O)n2c(ccc3ccccc32)c1C#N	-12	101	x	x	-0.5	i	0.94
CCNc1nc(C)c(CN(C(C)=O)c2ccccc2)nc1C#N	-16	65	0	110	0.6	i	0.98
N#CCCn1cc(C=C(C#N)C#N)c(-c2ccc(Cl)cc2)n1	0	104	x	x	x	i	1.1

(next part)
SMILES	PKD1 inh	RGS16-Gao	INS promoter inh	INS promoter inh cell count	GALR2 ag	HSV augment	HSV augment primary fold
COc1ccc(CN2CCNC(=O)C2CC(=O)NCCc2nc(C)c(C)s2)c(OC)c1 (centres undefined)	x	104	x	x	x	i	1
Cc1ccnc(SCCn2c(N3CC(C)OC(C)C3)nc3c2c(=O)n(C)c(=O)n3C)n1 (centres undefined)	2	101	x	x	x	i	0.96
O=C1CN=CN=CN1c1ccc(Cl)cc1Cl	-13	100	x	x	0.6	x	x
COCc1cc(C)nc(N2CCOCC2)c1C#N	3	112	x	x	-3.1	i	0.92
Clc1ccc(/C=N/Nc2nnc(-c3ncc[nH]3)c3ccccc23)cc1	3	98	7	139	-2.8	i	0.88
CCCC(C)NC(=O)c1cccc(Oc2ccccc2)c1 (centres undefined)	-4	102	-7	112	x	i	0.95
CCOc1ccc(S(=O)(=O)NCc2csc(C)n2)cc1	-3	106	-187	25	-3.0	i	1
CCOC(=O)C1CCN(C(=O)c2cccnc2Oc2ccc(Cl)cc2)CC1	x	111	x	x	x	i	0.91
CCCc1cc(=O)[nH]c(SCC(=O)N2CCN(S(=O)(=O)c3ccc4ccccc4c3)CC2)n1	-2	103	x	x	-0.2	i	1.1
Cc1cc(C)cc(Oc2ccccc2/C=C\C(=O)O)c1	-3	98	x	x	-0.5	i	1

Quoted from the listing:
Under INS promoter inh, `CCNc1nc(C)c(CN(C(C)=O)c2ccccc2)nc1C#N` has 0
Under INS promoter inh cell count, `Cc1sc2ncn(CC(=O)NCCCC(=O)N3CCN(c4ccccc4)CC3)c(=O)c2c1C` has 29
Under HSV augment primary fold, `CN(Cc1nc(CC2CC2)no1)CC12CC3CC(CC(C3)C1)C2` has 0.97
Under GALR2 ag, `Cc1c(C(=O)OCC(=O)NCCN2C(=O)CSC2=O)oc2c1ccc1ccccc12` has -0.2

More structures follow:
SMILES	PKD1 inh	RGS16-Gao	INS promoter inh	INS promoter inh cell count	GALR2 ag	HSV augment	HSV augment primary fold
CCCc1nnc(SCCSc2nnc(CCC)n2N)n1N	-3	94	53	71	-3.1	i	1
Cc1ccc(NC(=O)COC(=O)[C@@H]2CCCN2C(=O)c2cccs2)cc1S(=O)(=O)N(C)C	x	112	x	x	x	i	0.97
CCOC(=O)C1=NNC2(CC(=O)N(c3cccc(C)c3)C2=O)C1 (centres undefined)	x	96	x	x	x	i	1
O=C(c1ccc(S(=O)(=O)NCC2CCCO2)cc1)N1CCc2ccccc21 (centres undefined)	-3	101	-156	126	-1.6	i	0.94
COc1ccc(Oc2ccc(C(F)(F)F)cc2NC(=O)c2ccc(OC)cc2)cc1	x	106	x	x	x	i	1.2
COC(=O)c1[nH]c2ccccc2c1NC(=O)C(C)N1CC(C)OC(C)C1 (centres undefined)	x	97	x	x	x	i	0.82
CC12CN3CC(C)(CN(C1)C3c1ccc([N+](=O)[O-])o1)C2=O (centres undefined)	4	105	47	113	x	i	0.96
O=C(NCCCN1CCOCC1)c1ccc(CS(=O)(=O)c2ccc(Br)cc2)o1	13	105	x	x	-3.2	i	0.84
CCn1c(SCC(=O)Nc2nc3ccc(OC)cc3s2)nnc1-c1ccoc1C	2	101	-15	89	-2.4	i	0.94
COc1ccc(C2=NN(C(=O)c3cccs3)C(c3ccc(OC)cc3)C2)cc1 (centres undefined)	7	101	x	x	-0.9	i	1.1
Cc1cc(-c2ccccc2)nn1-c1nc2c(c(=O)[nH]c(=O)n2C)n1C	6	106	9	92	-1.0	x	x
CCOc1ccc(CCNC(=O)c2ccc3nc(N4CCOCC4)sc3c2)cc1OCC	x	113	x	x	x	i	0.96
O=C(O)C1CC=CCC1C(=O)NNc1c(Cl)cc(Cl)cc1Cl (centres undefined)	-4	102	x	x	x	i	0.66
COC(=O)c1sc(S(=O)(=O)N2CCCCC2)c(C(=O)OC)c1C	-8	101	x	x	-0.7	i	0.77
S=C(NCc1ccccc1)NCC1COc2ccccc2O1 (centres undefined)	-2	100	-36	60	-1.5	i	1
COC(c1ccccc1)c1nnc(CCC(=O)NC2C3CC4CC(C3)CC2C4)o1 (centres undefined)	-6	104	10	101	x	i	1.3
CCOC(=O)c1cnc2c(C)cccc2c1Nc1ccc(N2CCOCC2)cc1	9	105	27	137	-1.6	i	1
CCCCCCCOC(=O)C1=C(C)Nc2ncnn2C1c1cccs1 (centres undefined)	1	105	38	123	-2.9	i	0.96
CSc1ccc(Cl)c(C(=O)Nc2ccc(C)cn2)c1	-8	97	x	x	x	i	0.9
COc1ccc(OC)c(/C=N/NC(=O)c2cc[n+](Cc3ccccc3)cc2)c1	-7	112	-22	78	-1.5	i	0.98
CCN(CC)C(=O)C1=C(C)Nc2nc3ccccc3n2C1c1cccc(OC)c1 (centres undefined)	6	99	-27	84	-1.9	i	0.87
CCc1ccc(/C=N/NC(=S)NCCc2ccccc2)cc1	-5	90	0	159	-0.9	i	1.1
c1ccc(-n2c(SCC3CCCCO3)nnc2-c2cccs2)cc1 (centres undefined)	5	101	62	62	1.1	i	0.95
O=C(Cn1c(C(F)(F)F)nc2ccccc21)c1ccc(F)cc1	-3	101	-84	105	-3.9	x	x
Cc1ccc2c(c1)N(C(=O)CCC(=O)O)CCO2	-9	99	22	124	-1.1	i	0.93
O=C(Nc1ccc(Cl)c(Cl)c1)Nc1nnc(CSc2ccccc2)s1	-5	91	33	100	-1.1	i	0.56
COc1cccc(CN(CC(=O)NCC2CCCO2)C(=O)CNS(=O)(=O)c2ccccc2)c1 (centres undefined)	0	x	44	152	-2.4	i	0.85
CCCn1c(NCc2ccccn2)nc2ccccc21	-7	97	37	63	-0.7	i	0.91

3 structures already listed, sorted by molar mass, smallest number first.
SMILES	PKD1 inh	RGS16-Gao	INS promoter inh	INS promoter inh cell count	GALR2 ag	HSV augment	HSV augment primary fold
CCCn1c(NCc2ccccn2)nc2ccccc21	-7	97	37	63	-0.7	i	0.91
CCc1ccc(/C=N/NC(=S)NCCc2ccccc2)cc1	-5	90	0	159	-0.9	i	1.1
COc1cccc(CN(CC(=O)NCC2CCCO2)C(=O)CNS(=O)(=O)c2ccccc2)c1 (centres undefined)	0	x	44	152	-2.4	i	0.85
